# Compound activity (PubChem)
# gsp antag: gsp mutant antagonism; gsp-mutant cells, cAMP HTRF, 30 min; control for the full effect not named in the record; Potency, µM (doses to about 76.9 µM), for inactives: at the top dose activity change, negative = inhibition, usual class: inhibitors; 0.4% of 340,000 active; AID 624288; active = falling curve of any shape with a large fitted effect; inconclusive = falling curve, mostly with a smaller effect; inactive = flat or rising curve; cell line not stated here;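 further: intracellular cAMP measured with PDE inhibitor Ro 20-1724 present during compound exposure; potency means the concentration at half of the fitted maximal effect; on the % scale 0 is the no-effect control and ±100 the full control effect; nearly all actives have a fitted effect of over 65% in size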
#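 Measurement of cellular cAMP by homogeneous time-resolved fluorescence following a 30 min compound exposure at 37C. The PDE inhibitor […] was present throughout; the assay buffer was DPBS with 0.05% BSA and 0.005% Tween 20.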
# gsp agonist: agonists of gsp mutant (McCune-Albright syndrome); Potency, µM (highest dose often 76.9 µM), for inactives: top-dose activation (cAMP increase), actives largely listed as activators; gsp mutant cells, cAMP HTRF, 30 min; control for the full effect not named in the record; 0.13% of 340,000 active; AID 624287; active = well fitted activation curve with a large enough effect; inconclusive = small, poorly fitted or top-dose-only effect, or another doubt; inactive = no such curve, though single readings can be large or run the other way; cell line not stated here;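 further: phosphodiesterase inhibitor Ro 20-1724 added with compounds to block cAMP breakdown; potency means the concentration at half of the fitted maximal effect; nearly all actives have a fitted effect of over 60% in size; about a fifth of the inactives were tested at one dose only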
#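 Cells in DMEM/10% FBS with G418 were pretreated with compounds in DMSO plus […] (300 uM stock) for 30 min at 37C. cAMP was measured by HTRF (cAMP-d2 plus anti-cAMP antibody-K) after 30 min at room temperature.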
# CtBP-E1A inh: blocks the CtBP interaction with E1A | AlphaScreen GST-E1A/His-CtBP binding, 1536-well; hits give low values; control for the full effect not named in the record | activity change, % (no concentration beside the values) | 0.49% of 340,000 active | AID 651724; in the data active means activity change below about -65%; inconclusive means about -30% to -65%; inactive means above about -30%; further: on the % scale 0 is the no-effect control and ±100 the full control effect; compound concentration not given in the record
#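 In 5 uL wells, 23 nL compound meets equimolar GST-E1A and His-CtBP (5X stock 125 nM each) for 2 h, 37 °C. Beads (5X, 50 ug/mL) then 1 h, 37 °C, dark.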
# D2 PAM: positive allosteric modulators of human D2 dopamine receptor. potentiation, % (no concentration beside the values). 0.23% of 360,000 active. DiscoveRx D2 beta-arrestin cells, luminescence, 90 min; 100% = 57 uM dopamine signal. P14416. AID 624464; active = potentiation of 50% or more; inconclusive = 30% to 50%; inactive = 30% or less;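 further: compound concentration not given in the record; tested on top of an EC20 dose of dopamine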
#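 PathHunter D2 cells, attached overnight at 37 deg C, received compound in DMSO plus dopamine at EC20 (50 nM final) for 90 min at 37 deg C. Beta-arrestin recruitment was read as luminescence after 1 h with detection reagent at ambient temperature.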
# Six1-Eya2 inh: Six1/Eya2 interaction inhibition; AlphaScreen GST-Six1/His-Eya2 binding, biochemical; hits give low values; control for the full effect not named in the record; AID 651725; activity change, % (no concentration beside the values); 0.56% of 360,000 active; Q15475+O00167; in the data active = activity change below about -65%; inconclusive = about -30% to -65%; inactive = above about -30%; further: on the % scale 0 is the no-effect control and ±100 the full control effect; compound concentration not given in the record
# Target sequence (O00167 whole entry, looked up): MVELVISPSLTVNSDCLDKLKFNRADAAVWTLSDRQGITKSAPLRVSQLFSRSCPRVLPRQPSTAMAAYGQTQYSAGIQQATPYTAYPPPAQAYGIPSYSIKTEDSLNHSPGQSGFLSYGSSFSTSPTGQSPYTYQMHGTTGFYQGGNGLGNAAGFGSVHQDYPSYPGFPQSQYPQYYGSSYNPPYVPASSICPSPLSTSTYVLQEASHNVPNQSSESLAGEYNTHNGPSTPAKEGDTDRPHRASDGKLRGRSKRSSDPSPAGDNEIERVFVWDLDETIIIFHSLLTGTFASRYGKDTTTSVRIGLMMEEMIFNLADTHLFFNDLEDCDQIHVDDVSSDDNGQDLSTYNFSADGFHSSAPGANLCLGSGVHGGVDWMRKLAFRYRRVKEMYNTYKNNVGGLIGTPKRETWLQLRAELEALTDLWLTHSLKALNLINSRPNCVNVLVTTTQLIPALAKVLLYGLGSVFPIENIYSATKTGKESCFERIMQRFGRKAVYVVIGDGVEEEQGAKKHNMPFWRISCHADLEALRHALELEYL
# Target sequence (Q15475 whole entry, looked up): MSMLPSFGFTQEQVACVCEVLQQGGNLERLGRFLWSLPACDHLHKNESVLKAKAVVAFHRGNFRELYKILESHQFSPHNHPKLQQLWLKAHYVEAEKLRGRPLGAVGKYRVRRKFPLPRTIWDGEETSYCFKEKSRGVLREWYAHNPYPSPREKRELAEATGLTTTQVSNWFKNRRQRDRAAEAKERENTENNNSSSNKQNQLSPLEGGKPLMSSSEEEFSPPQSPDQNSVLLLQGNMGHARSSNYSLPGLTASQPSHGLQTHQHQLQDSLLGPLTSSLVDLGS
#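 GST-Six1 + His-Eya2 (5X stock: 250/500 nM); Tris pH 8.0, 300 mM NaCl, 0.05% BSA, 0.02% Tween 20; GSH donor/Ni acceptor beads; 1 h 37 °C dark; AlphaScreen readout.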
# D2 ag: agonists of human D2 dopamine receptor (beta-arrestin); 0.084% of 360,000 active; P14416; activation, % (concentration not given with the values); DiscoveRx PathHunter D2 beta-arrestin, luminescence, 90 min; 100% = 57 uM dopamine signal; AID 624465; in the data active = activation above about 40%; inconclusive = about 15% to 40%; inactive = below about 15%; further: compound concentration not given in the record; the text of the record calls up to 30% inactive
#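 DiscoveRx PathHunter D2 beta-arrestin cells (2,100/well) attached overnight, then compound-stimulated 90 min at 37 C in HBSS/10 mM HEPES/0.1% Tween-20 buffer; beta-galactosidase complementation read by luminescence after 1 h at ambient temperature. Dopamine 57 uM final (EC100) as control.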
# * = called active by the depositor; u = inconclusive; x = not tested or not shown; [ ] = remark or other dose.
SMILES,gsp antag,gsp agonist,CtBP-E1A inh,D2 PAM,Six1-Eya2 inh,D2 ag
O=C(CN1CCOCC1)Nc1cccc(C(=O)Nc2cccc(C(F)(F)F)c2)c1,-16%,0%,3,-7,-2,-1.5
NC(=O)COC(=O)CN1C(=O)C2CCCCC2C1=O (stereo not drawn),5%,9%[15.4 µM],-1,-7,2,0.8
CCc1nc2ccc(Cc3ccc4nc(CC)[nH]c4c3)cc2[nH]1,-4%,-2%,x,-11,-13,3.7
NC(=O)C1(Nc2ccc(-c3ccc(Cl)cc3)cc2)CCCC1,u,u,7,-7,-9,-1.6
OC1(c2ccc(F)cc2)CCN(Cc2ccccc2)C1 (stereo not drawn),-1%,-2%,5,-21,4,-0.5
Cc1ccc(S(=O)(=O)NCCCCCC(=O)Nc2nccs2)cc1,-5%,-20%,-3,-12,9,2.1
CC(C)n1c(O)c(N=NC(=O)c2ccccc2NS(=O)(=O)c2cccs2)c2ccccc21,-8%,2%,x,-10,-86*,-0.7
COc1ccc(OCC(O)CNS(=O)(=O)c2ccc(NC(C)=O)cc2)cc1 (stereo not drawn),2%,2%[15.4 µM],4,-1,7,2.0
Cc1cc(C)c2c(=O)n3c(nc2c1)C(CC(C)C)NC(=O)c1cc2ccccc2cc1-3 (stereo not drawn),x,4%,-10,x,-1,1.6
CCCCOc1ccc(C(=O)NCC(=O)NCC(c2ccc(OC)cc2)N2CCOCC2)cc1 (stereo not drawn),4%,-11%,1,-15,-3,-3.2
CC1OC(OC2C(Oc3c(-c4ccc(O)cc4)oc4cc(O)cc(O)c4c3=O)OC(COC3O[C@@H](C)[C@H](O)[C@@H](O)C3O)C(O)C2O)C(O)C(O)C1O (stereo partly drawn),11%,-21%,4,-4,8,-2.3
Cc1nnc(NC(=O)c2ccc(S(=O)(=O)N3CCCCCC3)cc2)o1,-7%,-8%,-23,-17,-26,-2.6

# A section taken from the entries so far, as a working copy:
SMILES,gsp antag,gsp agonist,CtBP-E1A inh,D2 PAM,Six1-Eya2 inh,D2 ag
Cc1cc(C)c2c(=O)n3c(nc2c1)C(CC(C)C)NC(=O)c1cc2ccccc2cc1-3 (stereo not drawn),x,4%,-10,x,-1,1.6
CCCCOc1ccc(C(=O)NCC(=O)NCC(c2ccc(OC)cc2)N2CCOCC2)cc1 (stereo not drawn),4%,-11%,1,-15,-3,-3.2
CC1OC(OC2C(Oc3c(-c4ccc(O)cc4)oc4cc(O)cc(O)c4c3=O)OC(COC3O[C@@H](C)[C@H](O)[C@@H](O)C3O)C(O)C2O)C(O)C(O)C1O (stereo partly drawn),11%,-21%,4,-4,8,-2.3
Cc1nnc(NC(=O)c2ccc(S(=O)(=O)N3CCCCCC3)cc2)o1,-7%,-8%,-23,-17,-26,-2.6

# Next structures follow:
SMILES,gsp antag,gsp agonist,CtBP-E1A inh,D2 PAM,Six1-Eya2 inh,D2 ag
Cc1cccc(NC(=O)c2nc[nH]c2C(=O)N[C@H](C)CO)c1,x,-5%,-2,x,-2,-1.7
C[C@@H]1CN([C@H](C)CO)C(=O)c2cc(Br)cnc2O[C@@H]1CN(C)C(=O)c1cccc(F)c1,x,u,3,7,-1,-3.0
CCN(CC)C(=O)C1CCN(c2ncnc3c2cnn3-c2ccc(C)cc2C)CC1,-15%,u,0,-14,4,-1.7
CCCCN(C(C)=O)c1c(CC)nc2ccc(C(=O)Nc3cccc(OCC(=O)N(C)C)c3)cn12,x,x,3,4,8,1.2
COc1ccc(Cl)cc1Nc1nc(C)cc(=O)[nH]1,-2%,1%,-2,-33,0,2.0
CCOC(=O)CSc1nc2cc(C(=O)NCc3ccco3)ccc2c(=O)n1C1CCCCC1,16%,7%,1,1,4,-1.3
COc1ccccc1Cn1c(=S)[nH]c2cc(C(=O)NC(C)C)ccc2c1=O,22%,u,0,-3,6,0.2
CCCCN1C(=O)C(CC(=O)NCC2CCCCC2)CC(C(=O)N2CCOCC2)=C1C (stereo not drawn),x,1%,-3,-2,-11,-2.6
CCOC(=O)c1cn(-c2ccccc2)nc1-c1cccnc1,-10%,15%,-1,-7,-1,-1.7
NC(=O)c1c(NC(=O)CSc2nc(N)cc(=O)[nH]2)sc2c1CCCC2,7%,-25%,x,-14,-4,-3.1
CCCN(C)C[C@H]1OCc2cnnn2CCCC(=O)N([C@H](C)CO)C[C@@H]1C,x,x,0,0,9,-3.8
Cn1c(=O)c2c(nc(Oc3ccccc3Cl)n2C)n(C)c1=O,-1%,u,-9,-13,0,0.2
CC1CCCC(NC(=O)COC(=O)c2ccc3c(c2)OCCO3)C1C (stereo not drawn),7%,1%,5,1,6,5.8
C=CCC1(CC=C)CCCN1C(=O)C1CCC(=O)N(CCc2ccc(Cl)cc2)C1 (stereo not drawn),-7%,27%,2,-4,9,-4.4
CCN(C(=O)COn1nnc2ccc(S(=O)(=O)N(C)C)cc21)C1CCS(=O)(=O)C1 (stereo not drawn),12%,3%,x,2,-1,-1.8
Cc1ccc(OCC(=O)NCCS(=O)(=O)N2CCN(c3ccccc3)CC2)cc1,-2%,9%[15.4 µM],1,-10,2,0.8
Cc1cc(=O)[nH]c2c1c(C)nn2C(C)(C)C,6%,-18%,5,-3,1,-1.3
Cc1ccc(-n2c(C)cc(/C=N/NC(N)=S)c2C)cc1,4%,-2%,-20,-32,u,-2.7
O=C(Cc1ccccc1)NC(NC(=S)Nc1cc(Cl)ccc1Cl)C(Cl)(Cl)Cl (stereo not drawn),8%,7%,-10,-15,0,-1.0
COC(=O)c1[nH]c2c(c1C)C(=O)CC(c1ccc(OC)c(OC)c1)C2 (stereo not drawn),u,u,5,7,2,0.5
COc1ccc(C2C(C(=O)NCCN(C)C)c3cc(OC)c(OC)cc3C(=O)N2C)cc1OC (stereo not drawn),3%,-17%,2,-1,9,-3.2
Cc1ccc(NC(=O)COC(=O)c2ccccc2-c2nc3ccccc3s2)c(C)c1,u,42%,6,0,2,-0.7
COc1ccc(Nc2ncccc2C(=O)O)cc1,-8%,u,0,-19,3,-3.0
CCOC(=O)N1CCN(C(=O)c2ccc3c(=O)n(-c4cc(OC)ccc4OC)c(=S)[nH]c3c2)CC1,-22%,u,-1,4,0,-1.0
O=S(=O)(c1ccc(Cl)cc1)N1CCN(c2ccc(N3CCOCC3)nn2)CC1,-5%,-25%,-1,-6,3,-1.5
COc1ccc(C2/C(=C(\O)c3cccc(OC)c3)C(=O)C(=O)N2c2ccccn2)cc1 (stereo not drawn),-2%,4%,2,-7,-1,-0.9
O=C(O)c1ccc2ncsc2c1,9%,-4%[15.4 µM],4,-4,0,-1.2
Fc1ccc(C(CNC(=S)NC2CCCCC2)N2CCOCC2)cc1 (stereo not drawn),4%,16%[15.4 µM],-12,-6,27,-2.3
Cc1csc(-c2cnn(-c3ccccc3)c2NC(=O)c2ccc(C(F)(F)F)cc2)n1,-11%,-3%,-2,-24,2,0.5
COc1ccc(NC(=O)CSc2nnc(C3CC3)n2N)cc1,1%,26%,-1,-4,0,0.2
CN1CCC(OC(=O)Cc2ccc(Cl)cc2)CC1,3%,-18%,x,-4,-2,-4.1
CC(C)Nc1nc(NCCOc2ccccc2Cl)c2sc(-c3ccccc3)cc2n1,x,x,4,-13,12,u
O=S(=O)(Cc1ccccc1Cl)NCCc1ccccc1,-3%,2%,0,-5,-3,-4.2
O=C(O)c1csc(-c2cccc(Cl)c2)n1,-7%,24%,2,9,-1,-1.5
C=C1C(=O)[C@@]23[C@H](O)C[C@@H]4C(C)(C)CC[C@H](O)[C@]4(C)[C@@H]2C[C@H](O)[C@@H]1[C@H]3O,1%,x,-2,-29,0,-1.9
Brc1ccc(N=C(c2ccccc2)c2ccncc2)cc1,-4%,u,18,-14,-2,0.0
CN(CC(=O)Nc1ccccc1)CC(=O)Nc1ccc(F)cc1,-3%,-1%[15.4 µM],-13,-3,6,-3.4
O=S(=O)(NCc1ccccc1)NCc1ccccc1F,2%,-4%,11,-11,5,-2.9
CN(c1ccccc1)S(=O)(=O)c1ccc(C(=O)NCCc2ccccc2)cc1,-14%,13%[15.4 µM],8,-2,7,-3.3
Oc1[nH]c2ccccc2c1OCc1ccncc1,0%,7%,1,0,-3,-0.3
CC(=O)c1ccc(-c2cccc(-c3cc(=O)oc4ccc(C(C)(C)C)cc34)c2)cc1,20%,x,3,4,-2,1.8
CCN1C(=O)[C@@H]2[C@@H]3CN(S(=O)(=O)c4ccc(C)cc4)[C@@H](c4ccccc4F)[C@@H]3C(=O)C[C@@H]2C1=O,x,x,6,-4,6,-3.3
CCCCC(=O)Nc1ccc(Br)cn1,4%,1%,4,-3,0,-2.4
CN(CC(=O)Nc1cccc(F)c1)CC(=O)Nc1cccc(S(N)(=O)=O)c1,-8%,16%,4,-6,3,-3.6
COc1ccccc1NC(=O)c1ccccc1-c1ccccc1C(=O)O,6%,-3%[15.4 µM],0,-4,4,-2.8
CCc1cc(C(=O)N2CCN(c3ncccn3)CC2)sc1C,-6%,10%[15.4 µM],17,2,5,-1.3
O=C(COC(=O)COc1ccc(Br)cc1)NCc1ccccc1,8%,-80%[inhibitor],5,-2,0,-3.9
COc1cccc(Nc2nc(C)cc(C)c2C(N)=O)c1,-2%,0%[15.4 µM],10,-11,9,-3.4
CC(C)C(=O)Nc1ccc2oc(=O)ccc2c1,2%,7%[15.4 µM],-19,0,-12,-1.6
C(#CSCc1ccccc1)SCc1ccccc1,x,1%,1,-12,81,-9.8
CCOc1ccc(C(=O)NC(=S)Nc2cccc(S(=O)(=O)NC3=NCCC3)c2)cc1,14%,22%[15.4 µM],-20,-2,-6,-8.9
O=C(O)c1cccc(N/N=C/C2=C(Cl)c3cc(Cl)ccc3SC2)c1,3%,16%,4,-14,1,-4.2
CCC(CC)NC(=O)c1cc([N+](=O)[O-])ccc1N1CCOCC1,10%,-1%,1,-11,1,-0.1
COc1ccc(NC2=Nc3ccccc3N[C@@]23C[C@H]2CCCC(=O)N4CC[C@@H](C3)[C@@H]24)cc1,-7%,x,-3,-110,-6,2.3
CCc1cc2cccc(C)c2nc1SCC(=O)Nc1nonc1C,10%,4%,-10,-19,1,-1.2
CC(Oc1ccc(F)cc1)C(=O)Oc1ccc(N(C)S(=O)(=O)c2ccccc2)cc1 (stereo not drawn),4%,-17%,0,-2,-2,-3.1
COc1cc(C(=O)Nc2cccc(C(C)=O)c2)cc(OC)c1OC,12%,1%,1,-3,1,-0.8
O=[N+]([O-])c1ccc(O)c(CNCc2ccccc2)c1,-22%,-10%,1,-24,5,-3.5
CC(=O)N1CCN(C(=O)C(Cc2ccccc2)NC(=O)c2ccccc2)CC1 (stereo not drawn),9%,2%,x,7,8,-0.4
CCCCc1c(C)nn(-c2nnc3c4ccccc4n(CC)c3n2)c1C,-12%,u,-5,-12,-6,-3.3
CCOc1ccc(NC(=O)CSc2nnc(N)s2)c([N+](=O)[O-])c1,x,-1%[15.4 µM],-20,7,8,5.7
O=C(O)CCC(=O)N(Cc1ccco1)c1nc(-c2ccccc2)cs1,-24%,4%,-1,-2,-2,0.1
NNc1nnnc2c1sc1nc(N3CCOCC3)c3c(c12)CCCC3,u,10%,x,-15,-2,-1.4
